Compound activity from PubChem BioAssay.
Bfl-1 A1 inh: caspase 3/7 activation in MEF A1-2A-BIM cells, primary screen, A1 inhibitor project, cell-based, luminescence, HTS; Caspase-Glo 3/7 luminescence, 3 h; percent of clofoctol response, vehicle zero; caspase activation, % (no concentration beside the values); 330,000 tested, 0.066% active; AID 2462, 2010;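 active = over half of replicate activation scores above 10%, or exactly half above 10 with the replicate mean above 10; inconclusive = replicate mean below 10 yet half the replicates above 10; inactive = over half of replicates below 10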;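 also: wells of about 30 µL received 50 nL stock; many hits fall short of the cut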
T cruzi inh: inhibitors of intracellular T. cruzi growth, primary screen, luminescence, NIH3T3 host cells | T. cruzi beta-gal in NIH3T3, 90 h | inhibition, % (concentration not given with the values) | 300,000 tested, 1.4% active;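 active = mean inhibition across valid replicates above about 55%, limit read from the data; inconclusive = mean below that limit but half or more replicates reach it; inactive = mean below it, under half of replicates reach it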;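 also: signal also drops with host cell toxicity which is not excluded here; 0% = plate median of DMSO wells and 100% = zero luminescence signal; higher percent means less beta-gal luminescence so fewer parasites; stock transfer was 50 nL into about 50 µL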
LANA-H2A inh: blockers of LANA interaction with H2A/H2B – biochemical, FP readout, HTS, primary screen; Protein LANA1 (Human herpesvirus 8 type P (isolate GK18)), Q9QR71; inhibition, % (concentration not given with the values); cell-free LANA-H2A/H2B peptide, fluorescence polarization; 320,000 tested, 0.6% active; in the data active = inhibition mostly above about 10%, no sharp cut-off; inactive = mostly below about 6.7%;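 also: stock transfer was 7.5 nL into about 10 µL; 0% = median of vehicle wells and 100% = median of positive control wells; one replicate is shown; the record names a cut of 25% in any replicate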
RanGTP-Imp inh: inhibitors of RanGTP-importin-beta interaction, primary screen, biochemical, FRET, CFP-Ran, YFP-importin-beta, homogeneous; cell-free CFP-Ran/YFP-importin-beta FRET ratio; inhibition, % (concentration not given with the values); 300,000 tested, 1.1% active; AID 2216, 2009;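 active = most replicates above 15%; inconclusive = exactly half above 15%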;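 also: 0% = DMSO wells and 100% = Ran loaded with GDP instead of GTP; wells of about 40 µL received 100 nL stock; the first replicate is given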
Beta2AR agonist: beta2AR agonists driving receptor internalization, primary screen, cell-based, FAP fluorogen, flow cytometry | 340,000 tested, 0.43% active | Am2.2-beta2AR cells; reference of the scale not given here | Beta-2 adrenergic receptor (Homo sapiens), P07550 | response, % (test concentration not listed) | AID 504454, 2011;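 active = response above a set limit, near 3 SD of response in nonfluorescent compounds, cut at about 42% in these data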;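 also: stock transfer was 100 nL into about 11 µL; a reference agonist was the positive control; negative values mostly stem from fluorescent compounds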
Target sequence (P07550 whole entry, looked up): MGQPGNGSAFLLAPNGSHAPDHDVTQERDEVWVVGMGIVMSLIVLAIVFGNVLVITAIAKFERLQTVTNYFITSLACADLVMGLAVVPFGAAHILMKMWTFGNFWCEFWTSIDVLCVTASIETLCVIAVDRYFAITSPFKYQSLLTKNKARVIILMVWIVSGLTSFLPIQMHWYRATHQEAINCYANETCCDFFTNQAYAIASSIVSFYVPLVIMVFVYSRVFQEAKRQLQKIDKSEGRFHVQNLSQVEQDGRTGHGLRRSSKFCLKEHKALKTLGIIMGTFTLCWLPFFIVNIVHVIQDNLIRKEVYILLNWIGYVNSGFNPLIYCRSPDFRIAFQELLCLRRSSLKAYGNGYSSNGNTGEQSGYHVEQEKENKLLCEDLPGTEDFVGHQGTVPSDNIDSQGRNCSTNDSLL
Calb FLC: C. albicans growth inhibition with fluconazole, primary screen, CaCi-2 strain, Alamar Blue fluorescence. C. albicans CaCi-2 (fluconazole-resistant clinical isolate) + fluconazole, 48 h. growth inhibition, % (no concentration beside the values). 300,000 tested, 0.57% active. AID 1979, 2009;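 active = most replicates above 75%; inconclusive = exactly half above 75%; inactive = most below 75%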;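 also: all wells also contain fluconazole at 8 µg/ml as a sub-toxic cotreatment; 0% = median of DMSO wells and 100% = median of geldanamycin control wells; wells of about 8 µL received 7.5 nL stock; the first replicate is given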
Beta cell apopt: inhibitors of cytokine-induced beta cell apoptosis, primary screen, luminescence. 300,000 tested, 0.8% active. INS-1E cytokine-induced death, ATP luminescence, 48 h; percent of positive-control rescue, neutral wells zero. protection from apoptosis, % (test concentration not listed);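 active = all replicates at 75% or more, or half of them and the mean; inconclusive = half reach 75% but not the mean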;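 also: 0% = cytokine-treated negative control wells and 100% = positive control rescue; higher means more ATP so stronger rescue from cytokine killing; wells of about 40 µL received 100 nL stock; the first replicate is given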
UCH37 inh: inhibitors of human UCH37 deubiquitinase, primary screen, biochemical, Ub-AMC cleavage, fluorescence | inhibition, % (concentration not given with the values) | Ubiquitin carboxyl-terminal hydrolase isozyme L5 (Homo sapiens), Q9Y5K5 | purified proteasome/UCH37 | 330,000 tested, 0.33% active;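 active = mean of two replicates above 20%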;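 also: 0% = compound-free wells with enzyme and 100% = wells lacking proteasome; stock transfer was 100 nL into about 20 µL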
Target sequence (Q9Y5K5 whole entry, looked up): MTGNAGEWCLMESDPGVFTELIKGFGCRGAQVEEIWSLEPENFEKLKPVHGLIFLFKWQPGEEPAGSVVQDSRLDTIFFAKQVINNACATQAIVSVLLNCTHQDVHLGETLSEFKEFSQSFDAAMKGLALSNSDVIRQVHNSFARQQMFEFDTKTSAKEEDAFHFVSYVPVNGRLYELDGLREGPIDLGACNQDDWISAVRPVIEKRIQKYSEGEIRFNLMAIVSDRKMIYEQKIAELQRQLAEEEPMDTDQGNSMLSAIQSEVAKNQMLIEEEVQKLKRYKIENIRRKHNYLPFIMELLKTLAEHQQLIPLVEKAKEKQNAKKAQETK
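Schedule: 30 min plus 25 min, room temperature / Material: human UCH37 within purified proteasomes / Technique: AMC fluorescence intensity at 355/460 nm / Buffer or medium: pH 7.4 Tris-HCl (50 mM) with ovalbumin, ATP-MgCl2, DTT / Controls: wells without proteasome as full block, compound-free enzyme plus substrate as uninhibited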
Numbers without * were called inactive; ? = inconclusive; nt = not tested or not shown.

smiles	Bfl-1 A1 inh	T cruzi inh	LANA-H2A inh	RanGTP-Imp inh	Beta2AR agonist	Calb FLC	Beta cell apopt	UCH37 inh
CN(CCOc1ccccc1)C(=O)C1CCC(=O)N(CCN2CCOCC2)C1 (configuration not stated)	0.4	6.6	8.2	-1.9	-1.1	-3.1	-2.0	0.0
Cc1ccc(N(C(=O)CNC(=O)c2ccco2)C(C(=O)NC2CCCCC2)c2cccnc2)cc1C (configuration not stated)	0.6	1.2	0.1	0.2	-8.5	2.1	-3.4	-0.9
Cc1ccc(N2CC(C(=O)Nc3ccc(C)c(S(=O)(=O)N(C)C)c3)CC2=O)cc1 (configuration not stated)	-0.4	-8.9	-1.5	-2.7	-3.2	-7.7	-9.2	5.0
CCOC(=O)Cn1nc(C)c(NC(=O)COc2ccccc2[N+](=O)[O-])c1C	-1.1	-13.8	nt	2.5	-5.4	0.7	-2.5	1.9
CC1CC(C)CN(C(=O)COC(=O)CNS(=O)(=O)/C=C/c2ccccc2)C1 (configuration not stated)	0.3	-0.4	2.3	1.5	10.7	-17.0	-8.5	1.7
c1ccc(Cn2nnnc2C(c2ccccn2)N2CCOCC2)cc1 (configuration not stated)	0.9	-2.6	-0.7	10.2	2.3	6.2	-8.8	0.3
COc1ccc2[nH]c3c(c2c1)CCN1C(=O)N([C@@H](C)C(=O)NCc2c(F)cccc2Cl)C(=O)[C@]31C	0.9	-6.0	-1.6	0.5	-5.0	0.1	1.2	-0.1
Cc1cc(Br)ccc1NC(=O)CNC(=O)CN(C)Cc1nc2ccccc2c(=O)[nH]1	0.7	4.3	0.6	9.2	-3.1	-8.0	-7.9	4.9
CC(CC(=O)NCc1ccc(Cl)cc1)c1ccccc1 (configuration not stated)	1.0	-7.0	-2.0	-4.8	4.3	-63.0	-0.6	0.4
O=C(CCS(=O)(=O)c1ccccc1)NNC(=O)CSc1ccccc1F	-0.8	nt	4.9	nt	-3.9	nt	-0.6	-1.8
COC(=O)Nc1nc(C)c(C(=O)N(C)C)s1	0.3	-1.2	-2.8	-1.5	-2.3	-0.4	-8.6	-2.1
Cc1nc(N)nc(N)c1CCCc1ccc(Cl)c(Cl)c1	-0.4	62.1*	2.7	-0.4	17.9	10.5	5.1	4.7
O=S1(=O)N=C(N(Cc2cccs2)c2ccc(O)cc2)c2ccccc21	0.4	-3.1	-1.6	2.6	-1.1	26.0	5.4	-0.5
Cc1ccc(C#N)c(SCc2nnc(-c3ccc(Cl)cc3)o2)n1	-2.0	16.2	3.0	7.7	-1.0	1.0	1.8	-1.2
CCN(CC)S(=O)(=O)c1ccc(S(=O)(=O)N(Cc2ccccn2)Cc2ccco2)cc1	0.7	16.0	-0.8	-3.5	-9.8	-1.0	0.8	1.2
CC(C)[C@H](NC(=O)N1CCC(Cc2ccccc2)CC1)C(=O)O	1.1	-0.5	8.2	-2.0	-5.9	-6.6	-3.7	1.6
CSc1ccccc1NC(=O)CN(Cc1ccc(Cl)cc1)S(C)(=O)=O	2.2	21.6	4.9	-5.2	-8.5	20.0	0.0	4.3
CC(=O)N/N=C(\C)C1COc2ccccc2O1 (configuration not stated)	-0.8	1.8	3.1	-0.7	0.6	-5.3	-2.4	nt
CC(C)CC(NC(=O)C1CCC(=O)N1)C(=O)NC(CC(C)C)C(=O)N1CCCC1C(N)=O (configuration not stated)	-0.8	-0.3	0.7	1.1	-6.5	1.7	nt	1.1
CN(CC(=O)Nc1ccccc1Br)C(=O)CNC(=O)c1ccc(Oc2ccccc2)cc1	-0.9	-7.4	0.5	?	-16.1	9.0	nt	2.2

Going on with the list:
smiles	Bfl-1 A1 inh	T cruzi inh	LANA-H2A inh	RanGTP-Imp inh	Beta2AR agonist	Calb FLC	Beta cell apopt	UCH37 inh
Cn1c(-c2ccncc2)nc2ccccc21	-0.2	-17.1	-1.1	-0.3	-1.2	-9.9	-4.5	-0.3
O=C1C=C(c2ccccc2Oc2ccccc2)C[C@@H](c2ccc3c(c2)OCO3)C1	0.4	nt	-0.2	nt	0.6	nt	-4.5	0.4
Cn1c(=O)c([N+](=O)[O-])c(-n2ccnc2)c2ccccc21	0.8	-41.5	3.4	2.1	40.0	27.3	-3.3	6.8
CCn1c(SCC(=O)NCc2ccc3c(c2)OCO3)nc2c(c1=O)SCC2	-0.2	2.0	-1.2	0.5	2.1	-2.5	-5.5	7.1
COCCn1c(=NC(=O)c2ccccc2[N+](=O)[O-])sc2cc(S(C)(=O)=O)ccc21	-0.2	0.4	-17.4	0.4	3.9	-0.5	-7.3	-0.4
O=C(N/N=C/C(Br)=C/c1ccccc1)NC1CCCCC1	-0.2	6.7	-9.0	3.4	1.7	-6.2	-10.7	nt
Cc1cc(C)cc(OCC(=O)NCc2nc(-c3ccccc3)no2)c1	-0.3	9.7	-6.5	0.0	-1.9	-1.9	-6.2	4.2
Cc1cc(C(=O)COC(=O)c2cc(Cl)c(O)c(Cl)c2)c(C)n1C	-0.7	nt	2.2	nt	6.7	nt	1.1	4.9
Cn1c(-c2ccccc2)cc2ccccc21	0.8	-11.5	3.4	0.1	-9.6	-3.3	-0.3	-2.1
CCOC(=O)c1cccc(-n2c(C)nc3ccccc3c2=O)c1	-0.1	3.4	3.1	-2.7	-4.7	2.8	-6.5	2.3
Cc1cc(C(F)(F)F)n(-c2nc(C(=O)Nc3cccnc3)cs2)n1	0.3	-4.8	3.3	2.4	-12.1	22.2	-1.4	2.0
Cc1ccc2nc(NCc3ccco3)c(C=NCc3ccco3)c(=O)n2c1	0.0	-3.4	0.1	5.2	24.2	2.5	2.0	1.6
COC(C(=O)Nc1ccc(Br)cc1F)c1ccccc1 (configuration not stated)	0.2	2.1	-0.8	0.3	-6.2	-5.7	-8.1	2.7
CCn1c(O)c(N=NC(=O)Cn2ccc(C(F)(F)F)n2)c2ccccc21	0.6	4.4	3.9	-1.2	-1.3	-10.1	-7.0	8.3
COC(=O)[C@@H]1CCCN1Cc1nc(Cc2ccc(OC)c(OC)c2)no1	-0.4	-12.4	-2.0	3.4	1.5	10.4	-4.3	2.9
COC(=O)c1sccc1NC(=O)Nc1ccc(F)cc1	-13.3	3.4	-1.2	-2.4	-2.8	1.9	-8.0	0.0
O=c1ccc2cc3c(-c4ccccc4)coc3cc2o1	-1.4	-7.5	3.2	1.6	-0.9	10.3	-1.1	-114.5
CN(C)S(=O)(=O)c1cccc2c1C(=O)c1ccccc1C2=O	0.1	-7.4	-6.7	?	4.1	10.7	5.1	1.6
Cc1c(C=Nc2ccc(S(=O)(=O)CCO)cc2)c(O)[nH]c(=O)c1C#N	0.2	2.1	-2.0	-28.1	9.3	-10.9	-2.2	8.1
Cc1ccc2c(c1)N(C(C)C(=O)NCc1cccs1)C(=O)CO2 (configuration not stated)	-0.7	-0.2	19.6*	4.7	-5.3	-14.1	-2.7	5.6

(further entries)
smiles	Bfl-1 A1 inh	T cruzi inh	LANA-H2A inh	RanGTP-Imp inh	Beta2AR agonist	Calb FLC	Beta cell apopt	UCH37 inh
CCOC(=O)C1(Cc2ccccc2)CCN(Cc2cnc(N3CCOCC3)s2)CC1	0.4	58.8*	52.6*	-3.8	1.7	4.0	-4.8	-0.7
O=C(CCN1CCCCC1)Nc1cccc(Br)c1	1.2	-0.1	-2.7	-0.8	-1.0	-5.0	-2.9	2.0
Cc1cc(C(=O)COC(=O)COc2ccc(C#N)cc2)c(C)n1C1CC1	0.1	-17.9	2.2	-3.1	-8.5	-0.1	-3.8	1.4
CCOC(=O)C(=N/O)/C(C)=N/NC(=O)C(=O)Nc1ccc(Cl)cc1	-0.3	-16.0	-1.0	3.4	4.7	-1.5	26.7	nt
Clc1ccc(Oc2nnnn2-c2ccccc2)cc1	0.5	-9.3	1.0	-0.4	2.9	6.0	-4.8	3.8
CCCC(=O)N1c2ccc(-c3csc(N)n3)cc2CC1C (configuration not stated)	0.6	9.3	0.3	?	22.8	3.6	-10.5	2.1
Cc1nc(N2CCOCC2)nc2c1CCCC2	0.3	0.7	3.5	-2.5	-8.2	-13.3	-2.1	-5.8
Cc1cc(C)c(C(=O)/C=C/c2ccco2)c(=O)[nH]1	0.4	-14.5	0.1	-4.1	-175.8	5.4	-1.8	10.0
O=C(CSc1nnc(-c2cccs2)n1Cc1ccco1)c1ccc2c(c1)OCO2	0.2	3.3	3.2	0.7	-8.0	-0.1	-6.1	-0.9
Cc1ccc(CSc2nc3ccncc3[nH]2)cc1	-6.0	16.2	1.7	0.6	9.2	-2.4	37.3	-4.5
CC#CCCCC(=O)Nc1ccccc1C(=O)O	-3.5	-13.7	-2.8	-4.6	-9.8	-12.4	nt	3.5
CC1CCCCN1Cc1c(C#N)c2ccccc2n1C (configuration not stated)	0.1	7.7	-5.1	2.8	2.3	4.4	0.1	-4.6
O=C(NC1CCCc2ccccc21)c1ccc(S(=O)(=O)N2CCOCC2)cc1 (configuration not stated)	0.8	0.0	-1.3	-2.3	2.5	58.7	-0.8	3.3
CCOc1ccc(OCC)c(NC(=O)CN2CCN(c3cc(C)ccc3C)CC2)c1	-0.3	70.1*	-2.9	3.8	3.2	-3.6	16.0	3.3
CCN(CC)C(=O)C1CCN(CC2CC=CCC2)CC1 (configuration not stated)	-0.5	-7.7	-3.3	?	0.3	-2.6	-0.5	0.0
COc1ccc(N2CCN(C(=O)c3nn(C)c4c3CS(=O)(=O)c3ccccc3-4)CC2)cc1	-1.2	-8.6	-2.6	0.3	3.5	13.0	-0.3	-1.3
Nc1nc(-c2cc(-c3ccccc3)no2)cs1	-8.0	0.8	-1.9	-1.4	-5.5	-31.7	nt	1.3

The order is random, and some 4.3% of all compounds hit somewhere here.
